V. cholerae motility: Vibrio cholerae motility inhibitors, OD read-out (AID 588778). Vibrio cholerae motility, OD read-out; higher % means a stronger effect; test concentration not given here; primary cut-off and reference of the scale not given here; strong numbers were not always called active. inhibition, %, or IC50 in µg/mL where a hit was titrated. 10,000 tested, under 10 active; in the data active means confirmed in a dose series
V. cholerae motility viability: second read-out of V. cholerae motility, no call of its own (marks repeat the call); inhibition, %; measured here: bacterial viability at 10 ug/mL;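 higher means fewer living bacteria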
The depositor's hits bear a star. An excerpt; the hit share may differ from the screen's.

Values in the order – V. cholerae motility viability	V. cholerae motility
- COc1ccc(C2=CC(=O)c3ccccc3C2=O)cc1
    12.1	18.4%
- O=C(Nc1ncc(Cc2ccc(F)cc2)s1)c1sc2ccccc2c1Cl
    -12.8	-26.7%
- O=C(Nc1ccccc1OC(F)F)c1ccco1
    -6.8	-9.4%
- CC(=O)Nc1ccc(NC(=S)Nc2cccc(C(F)(F)F)c2)cc1
    -5.0	-2.1%
- COc1ccc(CNc2cccc(SC)c2)c(OC)c1
    -4.3	-11.6%
- Clc1ccc(Cc2nc(-c3cccnc3)no2)cc1
    0.1	5.0%
- Cc1cc(C)nc(NC2CCCCC2)n1
    -3.0	-2.5%
- Nc1nc2c(c(C(F)(F)F)n1)CCCC2
    -2.0	8.6%
- CC(=O)C1=C(C)NC2=C(C(=O)c3ccccc32)C1c1ccccc1 (centres undefined)
    1.4	3.1%
- O=C(NCc1ccco1)c1cnccn1
    -11.7	-10.7%
- CCN1C(=O)C2C(c3ccccc3O)NC(Cc3c[nH]c4ccccc34)(C(=O)O)C2C1=O (centres undefined)
    -8.5	-12.4%
- Cc1ccccc1OC(=O)OCC(C)C
    -4.7	-15.4%
- CSc1nc2ccccc2n1CC(=O)Nc1cccc([N+](=O)[O-])c1
    -6.3	-19.7%
- COc1ccc(NS(=O)(=O)c2ccc(NC(=S)NCC3CCCO3)cc2)cc1 (centres undefined)
    -0.9	10.0%
- O=C(c1ccc(Cl)cc1)N1CCN(c2ccccc2NC(=O)C(Cl)(Cl)Cl)CC1
    6.7	24.2%
- Cc1nn(-c2ccccc2)c(C)c1NS(=O)(=O)c1ccccc1
    -0.4	-3.4%
- Cc1cc(C)nc(N(C#N)CCOc2ccccc2)n1
    -0.3	3.1%
- O=C1c2ccccc2C(=O)N1CCn1c(=O)oc2ccccc21
    5.3	2.4%
- CNC(=O)COc1ccc2cc(Br)ccc2c1
    6.2	14.1%
- COc1ccc(/C=C/c2nc3ccccc3s2)cc1S(=O)(=O)N1CCOCC1
    2.6	18.3%
- O=S(=O)(c1cccc(NC(=S)N2CCN(Cc3ccccc3)CC2)c1)C(F)F
    0.7	7.0%
- Cc1ccc(C)n1CCCCNC(=S)Nc1ccccc1
    -7.9	-7.5%
- O=C(Nc1cnccn1)c1cccs1
    10.6	20.3%
- CC1CCc2c(sc(NC(=O)Oc3ccccc3)c2C#N)C1 (centres undefined)
    -2.3	-6.7%
- COc1ccc(S(=O)(=O)NCc2ccco2)cc1N(C)S(=O)(=O)c1ccccc1
    -10.5	4.8%
- Cc1oc(CC(C)C)c(CN)c1C(=O)O
    -4.0	-3.4%
- CC(=O)c1c(C)oc(C)c1CSc1ccccc1C(=O)O
    1.2	-5.7%
- Cc1nn(CCCNC(=O)C2CCCO2)cc1Br (centres undefined)
    -1.5	-1.5%
- O=C(Nc1ccc2nsnc2c1Br)c1sc2cccc(Cl)c2c1Cl
    -4.4	-3.6%
- C=COCCNC(=O)Nc1ccccc1OC
    33.0	14.7%
- O=C(Nc1nc(-c2ccccc2)c(-c2ccc([N+](=O)[O-])cc2)s1)c1cccs1
    20.6	2.8%
- Cc1ccc(-c2noc(CNc3ccc(Oc4ccccc4)cc3)n2)cc1
    -7.6	-7.2%
- O=C(Nc1cccc(C(=O)N2CCOCC2)c1)Nc1ccc(Cl)c(Cl)c1
    28.5	17.7%
- CCOc1ccc2nc(NC(=O)c3c(-c4ccccc4)noc3C)sc2c1
    -2.4	-16.9%
- Cc1cc(C)c2ccc(/C=C/c3ccccc3N)nc2c1O
    6.5	35.3%
- CC(NC(=O)CSc1ccc(Br)cc1)c1ccccc1 (centres undefined)
    7.3	-6.6%
- COC(=O)C1CCN(C(=O)c2ccccc2F)CC1
    -5.0	4.1%
- COc1ccc(NC(=O)c2cnn(-c3ccccc3)c2NC(=O)c2ccccc2F)c(OC)c1
    -2.2	-0.1%
- Cc1ccc2cccc(NC(=O)C34CCC(C)(C(=O)C3)C4(C)C)c2n1 (centres undefined)
    -0.3	4.4%
- CS(=O)(=O)N1CCC(C(=O)Nc2ccc(Cl)c(C(F)(F)F)c2)CC1
    21.8	14.6%
- COc1ccc(NCC(=O)Nc2ccc(F)cc2)cc1
    4.8	-4.8%
- CCOC(=O)c1sc(NC(=O)CSc2nc(N)cc(=O)[nH]2)nc1C
    -7.5	-15.4%
- COc1ccc2nc(NCCCO)[nH]c2c1
    -5.9	11.6%
- COc1ccc(-n2ncc3c(NCCc4ccc(S(N)(=O)=O)cc4)ncnc32)cc1
    -3.4	-6.8%
- COCCCN1C(=O)C(O)=C(C(=O)c2ccc(C)o2)C1c1cccc(Br)c1 (centres undefined)
    2.1	9.9%
- CC12CCC(c3c(C(=O)O)nn(-c4ccccc4)c31)C2(C)C (centres undefined)
    1.2	-1.4%
- Cc1ccc(Sc2c(C)nn(C(=O)CNS(=O)(=O)c3ccccc3)c2C)cc1
    13.4	21.4%
- O=C(O)c1ccc2[nH]c3c(c2c1)CSCC3
    -8.3	-4.3%
- Cc1cccc(-c2nnc(SCC(=O)Nc3ccc(Br)cc3C(C)C)n2N)c1
    -4.6	21.6%
- O=C(CCS(=O)(=O)Cc1ccccc1)N1CCCc2ccccc21
    6.2	-12.5%
- Cn1c(=O)n(-c2cccc(Cl)c2)c(=O)n1C
    -2.5	-2.1%
- O=C(OCC1CCCN2CCCCC12)c1ccc2c(c1)OCO2 (centres undefined)
    8.2	17.9%
- COc1ccc(Br)cc1CN1CCN(S(C)(=O)=O)CC1
    -5.8	-14.0%
- O=C(COc1ccc(S(=O)(=O)Nc2ccc(F)cc2)cc1)NC1CCCC1
    6.0	12.2%
- COc1cccc(-c2cc(C(=O)Nc3ncccc3Cl)c3ccccc3n2)c1
    -7.1	-15.5%
- CCC(C)NCCCCOc1cc(C)ccc1Cl (centres undefined)
    6.0	31.5%
- O=S(=O)(NCCSc1ccccn1)c1ccc(Br)cc1
    -1.2	20.6%
- CCOC(=O)c1ccc(NC(=S)Nc2ccc(-c3nc4ccc(C)cc4s3)cc2)cc1
    -1.7	3.6%
- CC(=O)Nc1ccc(C(=O)NCC(=O)OCc2c(F)cccc2Cl)cc1
    -4.5	7.6%
- O=[N+]([O-])c1ccc2c(c1)C1C3CCC(C3)C1C(c1ccccc1Cl)N2 (centres undefined)
    -2.7	-7.7%

Next section
Values in the order – V. cholerae motility viability	V. cholerae motility
- CSc1nc(C)cc(OCC(=O)Nc2ccc(Cl)cc2)n1
    7.9	23.4%
- O=c1cc2oc3cc(O)c(O)cc3c(-c3ccc([N+](=O)[O-])o3)c-2cc1O
    -3.9	-33.9%
- COC(=O)C1=CN(CCCN2CCCC2=O)C=C(C(=O)OC)C1c1ccccc1C(F)(F)F
    1.1	-13.3%
- O=C(Nc1cc(F)c(F)cc1Cl)Nc1ccccc1C(F)(F)F
    -2.8	0.3%
- Cc1ccc(NC(=O)CCC(=O)NNC(=O)NC23CC4CC(CC(C4)C2)C3)cc1C
    23.1	7.0%
- N#Cc1ccc(-n2nnc3ccccc3c2=O)cc1C#N
    12.9	35.0%
- Cc1ccccc1COc1ccc(-c2nn[nH]n2)cc1
    4.0	4.8%
- Cc1cccc(C)c1OS(=O)(=O)c1ccc(I)cc1
    -5.5	-3.3%
- COc1ccc(/C=N/N2CCOCC2)cc1COc1ccc(F)cc1
    4.1	20.5%
- CC(=O)c1nc(Nc2nc3ccccc3o2)ncc1C
    3.5	8.8%
- Cc1cc(C)nc(SCCS(=O)(=O)Cc2ccc(Cl)cc2)n1
    -4.5	0.8%
- CC1CC(C)(C)Nc2ccc(OC(=O)CN3C(=O)c4ccccc4C3=O)cc21 (centres undefined)
    -4.5	13.6%
- O=C(O)CCC1=C2c3ccccc3CCN2C(=O)CC1
    -6.0	1.8%
- COc1cc(C2(c3ccc(O)c(OC)c3)C(=O)N(C)c3ccc(C)cc32)ccc1O
    -2.7	1.6%
- O=C1NN=C(c2ccc(Cl)cc2)CC1c1c[nH]c2ccccc12 (centres undefined)
    6.4	19.2%
- O=C(O)c1cc2c(ccc3ccccc32)[nH]1
    -1.4	-2.4%
- O=C1CCCN1CCCNC(=S)Nc1ccc2c(c1)OCO2
    2.2	7.8%
- Cn1nnc2cc(C(=O)NC3=NCCS3)ccc21
    -1.6	-2.4%
- CNC(=O)C(=O)NCCOc1ccccc1
    -12.8	-17.6%
- COc1ccc(COC(=O)NN2C(=O)c3ccccc3C2=O)cc1
    6.3	-7.7%
- O=C(O)Cc1ccc(NC(=O)c2cccnc2C(=O)O)cc1
    -2.5	-4.8%
- O=C(NCCCn1ccnc1)c1cc2ccccc2o1
    -6.8	-8.4%
- CCOC(=O)c1ccc(NC(CC(=O)c2ccccc2)c2ccccc2OC)cc1 (centres undefined)
    0.6	-0.3%
- Cc1cc(Cl)ccc1OCCCC(=O)N1CCN(c2ncccn2)CC1
    -3.0	-10.3%
- O=C(NCc1cccnc1)C(=O)Nc1nccs1
    -1.8	-16.4%
- Cc1cc(C)c(C#N)c(SCC(O)CNc2ccc(Cl)cc2)n1 (centres undefined)
    -2.1	-2.2%
- CC1(NC(=S)Nc2ccccn2)CCS(=O)(=O)C1 (centres undefined)
    4.7	-4.9%
- COC(=O)c1cc(OC)c(OC)cc1NC(=O)c1ccc(Br)s1
    -4.8	-12.6%
- CC(C)c1ccc(OCc2ccc(C(=O)NN3CCN(C)CC3)o2)cc1
    0.9	12.2%
- Cc1cc(C)c(NC(=O)CCN2CCCCC2)c(C)c1
    -4.9	7.8%
- COc1ccc(OC)c(-n2c(Cn3c(-c4ccccn4)nc4ccccc43)n[nH]c2=S)c1
    3.1	12.7%
- CCc1ccccc1OCCCCn1c2ccccc2c2ccccc21
    -15.4	-30.3%
- O=C(NC1CCCCC1NC(=O)C1CC1)C1CC1 (centres undefined)
    -7.8	3.1%
- Cc1cc(NC(=O)c2cc(-c3ccccc3)on2)n(-c2ccccc2)n1
    -14.0	-13.4%
- Cc1ccc(NC(=O)c2cc(NC(=O)C3CC=CCC3C(=O)O)ccc2N2CCOCC2)cc1Cl (centres undefined)
    -3.6	-5.9%
- Cc1ccc(NC(=O)c2ccc3ccccc3n2)nc1
    3.3	2.2%
- CCOC(=O)c1c2c(n(C)c1CN(CC)CC)C(=O)C(=O)c1ccc(Br)cc1-2
    48.5	45.0%
- COc1ccc(NC(=S)Nc2ccccc2OC(F)F)cc1OC
    -5.0	-38.0%
- CC(=O)Nc1cc(Cl)ccc1OS(=O)(=O)c1ccc(Cl)cc1
    32.9	16.5%
- O=C(CN1CC(=O)Oc2ccccc21)OCC(=O)c1ccc(Cl)c(Cl)c1
    -4.9	10.6%

Reprinted from the part before: 5 entries, then new ones.
Values in the order – V. cholerae motility viability	V. cholerae motility
- Cc1ccc(NC(=O)c2ccc3ccccc3n2)nc1
    3.3	2.2%
- CCOC(=O)c1c2c(n(C)c1CN(CC)CC)C(=O)C(=O)c1ccc(Br)cc1-2
    48.5	45.0%
- COc1ccc(NC(=S)Nc2ccccc2OC(F)F)cc1OC
    -5.0	-38.0%
- CC(=O)Nc1cc(Cl)ccc1OS(=O)(=O)c1ccc(Cl)cc1
    32.9	16.5%
- O=C(CN1CC(=O)Oc2ccccc21)OCC(=O)c1ccc(Cl)c(Cl)c1
    -4.9	10.6%
- Cc1ccc(/C=C/C(=O)Nc2cccc(Cl)c2Cl)o1
    2.4	2.9%
- CCOC(=O)c1nc(Nc2cc(Cl)ccc2O)c2ccccc2n1
    11.0	-12.3%
- COc1cc(C2NC(=S)NC(C)=C2C(=O)Nc2ccccn2)ccc1OCc1ccccc1 (centres undefined)
    -3.4	5.7%
- O=C(COc1ccccc1)N1CCN(C/C=C/c2ccccc2)CC1
    5.6	33.3%
- COC(=O)C1=C(C)N(C)C(C)=C(C(=O)OC)C1c1ccc(SC)cc1
    0.7	-0.1%
- CC(C)(C)c1cc(CN)c(C(=O)O)o1
    -1.4	-4.4%
- O=[N+]([O-])c1ccc(NC(=S)NCCc2ccccn2)cc1
    2.5	10.3%
- C(#Cc1cccc(C#CCN2CCCCC2)c1)CN1CCCCC1
    7.4	25.3%
- CC(=O)Nc1ccc(OC(=O)CSc2nc(C)cc(C)n2)cc1
    -12.9	-1.2%
- CN(C)C(=O)Nc1cccc(OC(=O)N(C)C)c1
    -3.4	16.4%
- C#CCOC(=O)Nc1cccc(Cl)c1
    26.2	88.6%
- Cc1cc(Oc2ccccc2)nc(OCC#N)n1
    33.0	13.6%
- CCOC(=O)Nc1sc(NS(=O)(=O)c2ccccc2)nc1C
    -5.7	7.6%
- O=C(NC(=S)NCc1cccnc1)c1ccc(Br)o1
    -2.0	1.7%
- Nc1nc(NCc2ccccc2)nc(-c2ccccc2)n1
    2.3	1.1%
- COc1cc([N+](=O)[O-])ccc1NC(=S)NCc1ccccn1
    12.5	-9.1%
- O=C(Nc1ccccc1N1CCCCC1)c1ccco1
    4.3	13.0%
- CN(C)/C=C/c1c(C#N)c(=O)ncn1Cc1ccccc1
    -1.2	13.7%
- O=C(NC(=S)N1CCN(C2CCCCC2)CC1)c1ccccc1
    0.2	17.4%
- O=C(CCS(=O)(=O)Cc1ccccc1)Nc1cc(C(F)(F)F)ccc1Cl
    -18.0	-26.7%

Single records (already shown). Order of values: V. cholerae motility viability | V. cholerae motility
Nc1nc(NCc2ccccc2)nc(-c2ccccc2)n1 is entered as 2.3 | 1.1%
COC(=O)C1=C(C)N(C)C(C)=C(C(=O)OC)C1c1ccc(SC)cc1 is entered as 0.7 | -0.1%
COc1cc([N+](=O)[O-])ccc1NC(=S)NCc1ccccn1 is entered as 12.5 | -9.1%
CN(C)C(=O)Nc1cccc(OC(=O)N(C)C)c1 is entered as -3.4 | 16.4%

(cont.)
Values in the order – V. cholerae motility viability	V. cholerae motility
- O=C1C2CCCCC2C(=O)N1c1ncn[nH]1 (centres undefined)
    29.7	5.5%
- O=C(c1ccc(F)cc1)c1cccnc1
    -11.6	-34.4%
- O=c1oc2cc(OCc3ccc(F)cc3F)ccc2cc1-c1ccccn1
    -2.1	3.5%
- CC(C(=O)Nc1cccc(F)c1)C1Sc2ccccc2NC1=O (centres undefined)
    -7.5	-28.2%
- C=CCOc1c(Cl)cc(CNc2nccs2)cc1OC
    8.9	1.3%
- Cc1ccc(SC(C)C(=O)Nc2cccc(C)n2)cc1 (centres undefined)
    0.7	6.7%
